MT1-MMP promoter: inhibitors of MT1-MMP promoter transcription, cell-based, luciferase reporter, luminescence (AID 618); MT1-MMP promoter luciferase reporter cells, luminescence; 0.62% of 87,000 active; calls from a first round at 10 µM; hits with a dose series show EC50 in µM;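 active = over half of the reporter light lost at 10 µM or EC50 under 50 µM; inactive = the rest and hits that failed the dose series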;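 also: actives suppress MT1-MMP promoter-driven transcription so potencies describe inhibitors; HT1080 fibrosarcoma cells; overnight exposure; toxic or luciferase-blocking compounds were not removed from the actives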
Hsc70 ATP site: Hsc70 inhibitors, probe displacement, primary screen, biochemical, fluorescence polarization (AID 568) | 83,000 tested, under 10 active | Heat shock cognate 71 kDa protein (Homo sapiens) | Hsc70 fluorescence polarization, probe displacement; higher % means a stronger effect; strong numbers were not always called active | displacement, % at 20 µM, or IC50 in µM where a hit was titrated;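 active = displacement above 50% without optical interference and an IC50 on retest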;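 also: ATPase domain with a fluorescein-tagged ATP probe; 0% = vehicle and 100% = excess ADP; read after one hour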
WNV protease inh: inhibitors of WNV NS2B-NS3 protease, primary screen, biochemical, fluorogenic substrate; fluorogenic substrate Ex360/Em465; active compounds read low; z-score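 (tested at a level between 10 and 100 µM)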; 0.18% of 65,000 active; AID 577, 2007;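 active = z-score at -3 or under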;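 also: score is relative to mean and spread of the compound wells of a plate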
Target sequence (P06935 1371-1501 limits assumed): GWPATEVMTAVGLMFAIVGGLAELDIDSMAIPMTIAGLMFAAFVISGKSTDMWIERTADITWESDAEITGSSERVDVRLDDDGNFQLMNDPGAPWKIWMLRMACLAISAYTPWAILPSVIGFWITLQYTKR
Target sequence (P06935 1502-1679 limits assumed): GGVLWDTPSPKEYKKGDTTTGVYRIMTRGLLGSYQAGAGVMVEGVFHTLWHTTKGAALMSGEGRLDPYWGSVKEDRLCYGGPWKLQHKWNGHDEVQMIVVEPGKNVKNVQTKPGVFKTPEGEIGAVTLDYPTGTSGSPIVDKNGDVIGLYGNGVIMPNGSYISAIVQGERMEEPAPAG
Starred values were filed as active, the others as inactive; i = inactive; nt = not tested or not shown.

SMILES	MT1-MMP promoter	Hsc70 ATP site	WNV protease inh
CCCCn1cnc2sc3c(c2c1=N)CCCC3	i	1.9%	0.37
O=C(Cn1cnc2c(nnn2Cc2ccc(F)cc2)c1=O)N1CCN(c2ccccc2)CC1	i	-1.0%	0.53
CCOC(=O)c1ccccc1NC(=O)Cn1cnc2c1c(=O)n(C)c(=O)n2C	i	6.9%	-0.26
CC(=O)C(Sc1nc(-c2ccco2)nc2c1c(=O)n(C)c(=O)n2C)C(=O)N(C)C (stereo unspecified)	i	-1.6%	0.59
CC(C)(C)c1cccc(/C=N/O)c1O	i	0.1%	-1.9
COc1ccc(-c2noc(COc3ccc4c(c3)OCO4)n2)cc1	i	2.8%	-0.08
COc1ccc2c(c1)cc1n2CCN2CCCN=C12	i	-3.2%	-0.11
CC1CC(C)CN(CC(=O)Nc2ccc3c(c2)OCCO3)C1 (stereo unspecified)	i	-0.8%	nt
CCc1nnc(NC(=O)CSc2nnc(CNc3cccc(C)c3)n2-c2ccccc2)s1	i	-3.3%	0.58
CC(C)c1nc2oc3c(NCC4CCCO4)ncnc3c2c2c1CCC2 (stereo unspecified)	i	1.2%	-0.35
O=C(Nc1cccnc1)c1cc2c(ccc3ccccc32)o1	i	4.2%	0.28
O=S(=O)(NCCSc1nnnn1-c1ccccc1)c1cccs1	i	2.1%	1.9
O=C(O)C(Cc1ccccc1)N1Cc2ccccc2C1=O (stereo unspecified)	i	4.0%	nt
COCCOC(=O)C(C#N)c1nc2ccccc2nc1N1CCN(Cc2ccccc2)CC1 (stereo unspecified)	i	-4.0%	-1.8
COc1ccc(Cc2c[nH]c(=O)[nH]c2=O)cc1	i	-3.2%	nt
CC1CN(C(=O)c2cc(F)c(F)cc2Cl)CC(C)O1 (stereo unspecified)	i	1.2%	1.1
COCCN(CCOC)c1nc(S(=O)(=O)c2ccc(C)cc2)c(Cl)s1	i	-2.7%	nt
Cc1ccc2c(CC(=O)OCn3nnc4ccccc4c3=O)coc2c1	i	-3.5%	0.89
Cc1ccc(NC2=Nc3ccccc3CC2)cc1	2.7µM*	3.7%	nt
COc1ccc(C2C(C(=O)c3sc(C)nc3C)=C(O)C(=O)N2CCN2CCOCC2)cc1 (stereo unspecified)	i	-4.7%	-0.8
O=C(CSCc1cnn(-c2ccccc2)c1-n1cccc1)N1CCN(Cc2ccccc2)CC1	i	5.1%	nt
COc1ccc(CN(C(=O)CNC(=O)c2ccco2)C(C(=O)NC2CCCC2)c2ccco2)cc1 (stereo unspecified)	i	-4.5%	0.53
CN1CCN(S(=O)(=O)c2ccc(Br)c3nsnc23)CC1	i	3.1%	nt
Cn1c(=O)c(C(=O)NC2CCCCCCC2)c(O)c2ccccc21	i	4.1%	-0.5
CC(=O)Oc1c(S(=O)(=O)c2ccc(C)cc2)c(C)nn1C(C)(C)C	i	0.1%	0.47
Remaining list, next part:
SMILES	MT1-MMP promoter	Hsc70 ATP site	WNV protease inh
COc1ccc(-c2noc(CN3CCOCC3)n2)cc1OC	i	1.0%	-0.59
N#CNC(N)=Nc1cccc(Cl)c1	i	-9.0%	-0.3
O=C(NC1CCS(=O)(=O)C1)c1cn(-c2ccccc2)nc1-c1ccccc1 (stereo unspecified)	i	-3.1%	0.79
COC(=O)CC1NCCNC1=O (stereo unspecified)	i	-1.1%	-0.66
COc1cccc(N=Cc2ccc(O)cc2O)c1	i	1.3%	0.25
Cc1oc(C)c2c(=O)ccc3c(c12)OC(N)=C(C#N)C3c1ccc(F)cc1 (stereo unspecified)	i	-8.2%	-0.31
CCC1CCCCN1CCCNC(=O)CNC(=O)Cn1ccc2ccccc2c1=O (stereo unspecified)	i	10%	-0.13
CCOc1cc(C2C(C(=O)N3CCOCC3)=C(C)NC3=C2C(=O)CCC3)ccc1O (stereo unspecified)	i	4.7%	nt
Cc1ccc(N2C(N)=C(C#N)C(c3cccnc3)C3=C2CC(C)(C)CC3=O)cc1 (stereo unspecified)	i	9.9%	0.37
c1ccc2[nH]c(SCc3cscn3)nc2c1	i	-3.9%	-0.44
Cc1cc(N2CCN(C)CC2)nc2ccc(NC(=O)CCC(=O)NCCC3=CCCCC3)cc12	i	-1.5%	-0.23
O=C(c1cc2cc3ccc(Cl)cc3nc2o1)N1CCN(Cc2ccc3c(c2)OCO3)CC1	i	-1.0%	-0.2
CCC(C)(C(=O)NC1CCCCC1)N(Cc1ccco1)C(=O)CC1NC(=O)NC1=O (stereo unspecified)	i	-1.2%	-0.03
Cc1cc(C)n(-c2nc(NCC(C)O)c3c4c(sc3n2)COC(C)(C)C4)n1 (stereo unspecified)	i	3.6%	nt
CCOC(NC(=O)c1ccccc1)C(NC(=O)c1ccccc1)OCC (stereo unspecified)	i	-2.4%	1.6
O=C(CCc1nc2ccccc2s1)N1CCN(S(=O)(=O)c2cccs2)CC1	i	9.5%	0.79
CCOC(=O)N1CCC(N(C(=O)Nc2ccc(CC)cc2)C(C)CC)CC1 (stereo unspecified)	i	0.1%	1.4
CCCCSc1nnc(-c2ccc(C)cc2)o1	i	6.7%	-0.53
O=C(O)C1CC=CCC1C(=O)Nc1ccccc1Cl (stereo unspecified)	i	-2.7%	-0.76
CC(=O)c1ccc(Cc2cnc(N)s2)cc1	i	-6.4%	-0.18
COc1ccccc1NC(=O)C1CCCN1C(=O)NCc1ccccc1 (stereo unspecified)	i	-6.2%	-0.01
Clc1ccc2c(c1)c1cc(Cl)ccc1n2CN1CCOCC1	i	3.4%	nt
Cc1cc(C(=O)COc2nncc3ccccc23)c(C)n1C	i	4.7%	0.22
COc1ccc2c(CC(=O)NCc3ccc4c(c3)OCO4)coc2c1	i	-8.8%	0.17
O=C(Nc1nc(-c2cccs2)cs1)c1ccc(S(=O)(=O)N2CCCC2)cc1	i	0.2%	-0.36

As a working copy, 7 of the compounds above.
SMILES	MT1-MMP promoter	Hsc70 ATP site	WNV protease inh
Cc1cc(N2CCN(C)CC2)nc2ccc(NC(=O)CCC(=O)NCCC3=CCCCC3)cc12	i	-1.5%	-0.23
O=C(c1cc2cc3ccc(Cl)cc3nc2o1)N1CCN(Cc2ccc3c(c2)OCO3)CC1	i	-1.0%	-0.2
CCC(C)(C(=O)NC1CCCCC1)N(Cc1ccco1)C(=O)CC1NC(=O)NC1=O (stereo unspecified)	i	-1.2%	-0.03
Cc1cc(C)n(-c2nc(NCC(C)O)c3c4c(sc3n2)COC(C)(C)C4)n1 (stereo unspecified)	i	3.6%	nt
CCOC(NC(=O)c1ccccc1)C(NC(=O)c1ccccc1)OCC (stereo unspecified)	i	-2.4%	1.6
O=C(CCc1nc2ccccc2s1)N1CCN(S(=O)(=O)c2cccs2)CC1	i	9.5%	0.79
CCOC(=O)N1CCC(N(C(=O)Nc2ccc(CC)cc2)C(C)CC)CC1 (stereo unspecified)	i	0.1%	1.4

Next section
SMILES	MT1-MMP promoter	Hsc70 ATP site	WNV protease inh
Cn1ncc(N=Cc2ccccc2O)c1C(=O)Nc1ccccc1	i	5.8%	-0.27
CCn1c(CNC(=O)c2cccc(C)c2)nc2ccccc21	i	4.5%	-0.43
COc1cc(Cl)c(C)cc1NC(=O)CSc1nnc(-c2ccccn2)n1Cc1ccco1	i	-6.8%	-0.63
N=c1c2c(-c3ccccc3)c(-c3ccccc3)n(Cc3ccco3)c2ncn1Cc1ccccc1	i	2.1%	nt
O=C(NCc1cccs1)c1nc2c(nnn2Cc2ccc(F)cc2)c(=O)[nH]1	i	3.6%	0.53
CC(C)(C)CC(C)(C)NC(=O)CSCC(=O)Nc1ccc2ccccc2c1	i	1.3%	nt
NC(=O)C1(N2CCCCC2)CCN(C(=O)c2ccc(-n3cnnn3)cc2)CC1	i	5.1%	-0.89
CCOC(=O)Nc1ccc2c(c1)N(C(=O)CCN1CCN(CCO)CC1)c1ccccc1CC2	i	4.2%	nt
CCCCNC(=O)CS(=O)Cc1nc(-c2cccc(Cl)c2)oc1C (stereo unspecified)	i	-1.9%	-1.2
CCCN1Cc2cccc(C(=O)Nc3cc(OC)cc(OC)c3)c2C1=O	i	-3.6%	1.5
CC(=O)C1=C(O)C(=O)N(Cc2cccnc2)C1c1ccc(Cl)cc1 (stereo unspecified)	i	3.3%	nt
CC(Oc1ccc(Cl)cc1)C(=O)OCC(=O)Nc1ncc(Cl)cc1Cl (stereo unspecified)	i	6.5%	nt
O=C(c1cccs1)N1CCN(Cc2ccc3c(c2)OCO3)CC1	i	-6.8%	0.18
CC1CCCCC1NC(=O)CCCc1nc2ccccc2c(=O)[nH]1 (stereo unspecified)	i	-1.5%	0.02
Cc1ccc(-c2noc(CSc3nnnn3-c3ccccc3)n2)cc1	i	-5.5%	-0.38
Cc1cc(=O)oc2cc(OCC(=O)OCC(=O)N3CCc4ccccc43)ccc12	i	2.0%	-1.1
Cc1ccc(OCCSc2nnc(-c3cccs3)n2C)cc1	i	6.8%	nt
Cc1ccc(S(=O)(=O)Nc2ccc(S(=O)(=O)N3CCCC3)cc2)cc1	i	-2.9%	0.74
CCC1CCCCN1C(=O)COC(=O)c1ccc(S(=O)(=O)N2CCOCC2)cc1 (stereo unspecified)	i	-5.2%	0.37
Cc1cc(C)nc(SCC(=O)Nc2ccc(S(=O)(=O)NC(C)(C)C)cc2)n1	i	-5.2%	nt
CCC1Oc2ccc(C)cc2N(CC(=O)NCCCN2CCN(Cc3ccccc3)CC2)C1=O (stereo unspecified)	i	1.1%	1
COc1ccccc1C1SCCN1S(=O)(=O)c1cccc(C(F)(F)F)c1 (stereo unspecified)	i	-2.3%	1.9
Cc1cccc(Cn2c(NCC(C)O)nc3c2c(=O)n(C)c(=O)n3C)c1 (stereo unspecified)	i	3.7%	-0.05
O=C(Nc1c(C(=O)N2CCCCC2)cnn1-c1ccccc1)c1ccco1	i	4.9%	0.55
CCC1Oc2ccc(C)cc2N(CC(=O)NCCCN2CCCCC2CC)C1=O (stereo unspecified)	i	2.6%	-0.91
(continued)
SMILES	MT1-MMP promoter	Hsc70 ATP site	WNV protease inh
COc1cc(OC)c(-n2c(C)cc(C=O)c2C)cc1Cl	i	-2.3%	nt
O=C(CSc1nnc(-c2cccs2)n1-c1ccccc1)c1ccc2c(c1)OCCO2	i	-4.5%	-0.24
COc1ccc(OC)c(S(=O)(=O)NC2CCN(Cc3ccccc3)CC2)c1	i	-0.8%	2.3
c1ccc(OCc2nc(-c3cccs3)no2)cc1	i	-0.5%	nt
Cc1c(NC(=O)C(C#N)=C2CCCCC2)c(=O)n(-c2ccccc2)n1C	i	1.7%	1.1
O=C(CCNC(=O)c1ccc(Br)o1)NCc1ccc(Cl)cc1	i	-2.3%	0.17
O=C(COc1ccc(Br)cc1)N1CCC(c2ccccc2)C1 (stereo unspecified)	i	-3.1%	nt
CCN(CC)CCn1c(NCc2cccc(OC)c2)nc2ccccc21	i	9.5%	-1.2
Cc1nc(NC2=NCN(CCc3ccccc3)CN2)nc2ccccc12	i	10%	-0.89
COC(=O)c1c(C(=O)OC)c2n(c1C)Cc1ccccc1C2	i	4.5%	0.25
CCN1CSC(=S)N(Cc2ccc(OC)cc2)C1	i	0.7%	0.43
COc1ccc(CNC(=O)c2ccc(N3CCCC3=O)cc2)cc1	i	4.0%	-0.6
CC(C)COC(=O)c1cc(-c2ccc(/C=N/n3cnnc3)o2)ccc1Cl	i	-33%	0.59
CCCNC(=O)COC(=O)c1[nH]c(C)c(C(=O)OCC)c1C	i	-0.5%	nt
COc1cc2c(cc1OC)C(C(=O)NC1CC1)C1c3ccccc3CCN1C2=O (stereo unspecified)	i	3.8%	-0.27
CCCNc1nc2c(c(=O)[nH]c(=O)n2C)n1CCC(C)C	i	2.8%	-0.59
O=c1[nH]c2ccccc2n1CCCN1CCN(C(c2ccccc2)c2ccccc2)CC1	i	3.0%	0.02
Cc1ccc(NC(=O)c2ccccc2O)cc1	i	4.9%	0.09
COc1ccc(C(c2nnnn2C2CCCC2)N2CCc3ccccc3C2)cc1OC (stereo unspecified)	i	-0.6%	-0.87
CC(C)Oc1ccc(C2CC(=O)N(c3ccccc3)C2=O)cc1 (stereo unspecified)	i	-1.1%	nt
CCOC(=O)c1[nH]cnc1C(=O)NC(C)C	i	-0.5%	nt
O=C(CSc1nnc(-c2cccnc2)n1-c1ccccc1)NCc1ccc2c(c1)OCO2	i	0.5%	-0.23
CS(=O)(=O)N1CCN(c2ccccc2NC(=O)C(c2ccccc2)c2ccccc2)CC1	i	-4.5%	nt
CCc1cc(N2CCOCC2)cc2c1[nH]c1ccccc12	i	-0.8%	0.07
CCOC(=O)c1c(NC(=O)CSc2nnc(-c3cccnc3)o2)sc(C(C)=O)c1C	i	-10%	0.87

Compounds above that contain a COOH group, in the order listed:
SMILES	MT1-MMP promoter	Hsc70 ATP site	WNV protease inh
O=C(O)C(Cc1ccccc1)N1Cc2ccccc2C1=O (stereo unspecified)	i	4.0%	nt
O=C(O)C1CC=CCC1C(=O)Nc1ccccc1Cl (stereo unspecified)	i	-2.7%	-0.76

(more compounds)
SMILES	MT1-MMP promoter	Hsc70 ATP site	WNV protease inh
Cc1cc(NC(=O)CN2CCN(c3ccccc3O)CC2)no1	i	2.0%	1.1
COc1cccc2cc(C(=O)N3CCN(C(=O)c4ccco4)CC3)c(=O)oc12	i	8.3%	-0.57
CC(C)(C)SCCNS(=O)(=O)c1ccc2ccccc2c1	i	-1.6%	nt
COC(=O)c1[nH]c2cc(OC)ccc2c1NC(=O)CCN1CCCCC1	i	-0.2%	0.08
CC(C)n1c(-c2cccs2)nc2ccccc21	i	-1.3%	nt
CSC1=NCCN1C(=O)c1ccc(S(=O)(=O)N2CCCCC2)cc1	i	-2.3%	-1.2

High-throughput results from PubChem.

This is a subset, so the mix of outcomes need not match the whole.
